HSD17B inhib: blocks hydroxysteroid 17-beta dehydrogenase activity; Q99714; recombinant HSD17B10, NADH fluorescence kinetic; many of its hits are not listed in these tables; Potency, µM (doses to about 57.1 µM), inactives show top-dose activity change, negative = inhibition, actives largely listed as inhibitors; actives 7.6% (n = 75,000); active = well fitted inhibition curve with a large enough effect; inconclusive = small, poorly fitted or top-dose-only effect; inactive = no such curve, though single readings can be large or run the other way;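 note: the protocol describes HADH2 (HSD17B10) and not the HSD17B4 of the title; nearly all actives have a fitted effect of over 70% in size; most hits overshoot -100% by far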
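Activity followed as NADH fluorescence increase (ex 360, em 450 nm) every 30 seconds for 4 min, using final 90 uM beta-hydroxybutyryl CoA and 1 mM NAD+. Recombinant His-tagged enzyme, 20 nM, pH 9.0 Tris buffer, 15 min compound preincubation.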
* hit, by the source's call; ? = inconclusive; [ ] = remark or other dose. % is set by controls: 0 for no effect and ±100 for the full control effect; potency is the fitted concentration of half-maximal effect.

SMILES	HSD17B inhib
COc1ccc(C2(CNC(C)=O)CCOCC2)cc1OC	8%
C[C@@H]1Cc2ccccc2N1NC(=O)c1ccc(Cl)c(S(N)=O)c1 (stereo partly drawn)	8%[25.6 µM]
CCCCCCOC(=O)C(C#N)c1nc2ccccc2nc1N1CCOCC1 (stereo not drawn)	-2%
COc1ccc(O)c(C(=O)c2cnc3onc(C(C)C)c3c2)c1	0%
c1ccc(COCc2ccccc2)cc1	2%
COc1ccc(C(=O)n2nc(-c3ccco3)nc2SC)cc1OC	?
Cc1ccc(NC(=O)CS(=O)CC(=O)Nc2ccc(N3CCOCC3)cc2)cc1Cl (stereo not drawn)	-4%
Cc1ccc(CNC(=O)CN2CCN(Cc3ccc(C)cc3)C2=O)cc1	0%
O=C(Cc1cccs1)N1CCC(c2nc3c(nnn3Cc3ccccc3)c(=O)[nH]2)CC1	-3%
CCOC(=O)N1CCN(C(=O)C2CCN(S(C)(=O)=O)CC2)CC1	8%
COc1ccc2[nH]c(=O)c(CN(CCc3ccccc3)Cc3nnnn3CC3CCCO3)cc2c1 (stereo not drawn)	?
CC(C)C(NC(=O)C12CC3CC(CC(C3)C1)C2)C(=O)O (stereo not drawn)	1%
O=C(NC12CC3CC(CC(C3)C1)C2)c1ccccc1O	25µM*
CC(=O)Nc1nnc(SCC(=O)NC(C)(C)C)s1	3%
CC(C)C1N=C2c3ccccc3N=C(SCC(=O)NCCc3ccc(S(N)(=O)=O)cc3)N2C1=O (stereo not drawn)	32µM*
Cc1[nH]c2c(C)ccc(C)c2c1CC(=O)O	2%[11.4 µM]
COC(=O)[C@@H]1C[C@H]2CC[C@H](O)C[C@H]2N1Cc1ccccc1OC(=O)c1cccs1	9%
COc1nc(-c2ccccc2)ccc1-c1noc(-c2ccco2)n1	?
COc1ccc(C(=O)NC2CCN(S(=O)(=O)Cc3ccccc3)CC2)c(OC)c1	8%
O=C(CSc1nc2ccccc2nc1SCC(=O)N1CCCCC1)N1CCCCC1	-4%
CCOc1ccc(C(C)=O)cc1Cn1nc(C(=O)O)c2ccccc2c1=O	2%
CN(C)C(=O)c1ccc(-c2ccc3ncnc(Nc4ccccc4)c3c2)cc1	-15%
CC(C)CCOc1ccc(C(=O)CCNC(C)C(=O)O)cc1 (stereo not drawn)	?
CN(C(=O)COc1cc(=O)n(C)c2ccccc12)c1ccc(Br)cc1	0%
CCOc1ccc(CCN2C(=O)C3C4C=CC(C4)C3C2=O)cc1OCC (stereo not drawn)	7%
Cc1ccc(-c2[nH]nc3c2C(c2ccc(OC(=O)N4CCOCC4)cc2)C(C#N)=C(N)O3)cc1 (stereo not drawn)	-19%
O=C(Nc1ccc2c(c1)CCC2)C1COc2ccccc2O1 (stereo not drawn)	-12%
CCC(C)NC(=O)c1c(-c2cc(Cl)c(OC)c(Cl)c2)noc1C (stereo not drawn)	5%
CC(NC(=O)c1ccccc1)(C(=O)O)C(=O)O	6%[11.4 µM]
CC(C)[C@@H](OCc1ccccc1)[C@H](C)/C=N\OC[C@@H](O)[C@@H]1O[C@@H]2OC(C)(C)O[C@@H]2[C@H]1O	-1%[11.4 µM]
COc1ccc(S(=O)(=O)NCCN2CCOCC2)c2ccccc12	-2%
CC(=O)N1CCc2cc(C(=O)CN3CCN(c4cccc(Cl)c4)CC3)ccc21	0%
Cc1ccccc1CS(=O)(=O)Cc1ccc(C(=O)N2CCOCC2)o1	9%
CCCC(=O)Nc1ccc2c(c1)C(=O)N(CCC(=O)O)C2=O	25µM*
CC1CCCCC1NC(=O)c1cn(C)c2ccc(S(=O)(=O)N3CCCC3)cc2c1=O (stereo not drawn)	-1%
COc1ccc(C2CC(=O)C3=C(C2)Nc2ccccc2N(C(C)=O)C3c2ccco2)cc1 (stereo not drawn)	-28%
CC(C)COC(=O)Cn1cnc2ccc(Br)cc2c1=O	-1%
C=CC[C@@H]1C=C[C@H](ON=C(C)C)[C@H](CO)O1	3%[11.4 µM]
NS(=O)(=O)c1cccc2cccnc12	-1%
Cc1ccc(NC2=NCC(=O)N2c2ccc3c(c2)OCCO3)c(C)c1	1%
O=c1[nH]c(=O)n(Cc2ccccc2)c2nc(-c3ccco3)cc(C(F)(F)F)c12	13µM*
CCOC(=O)c1c(C)oc(/N=C/c2ccccc2O)c1C#N	-1%
CCC(=O)Nc1ccc(NC(=O)c2ccccc2Cl)nc1	10%
CCOC(=O)C(C)n1cnc2c(nnn2-c2ccc(OC)cc2)c1=O (stereo not drawn)	9%
Cc1ccc2c(c1)C(c1ccccc1)N(C(=O)C(C)C)CC(=O)N2 (stereo not drawn)	-4%
O=C(NCCC1=CCCCC1)C1CCN(c2nnc(-n3cccc3)s2)CC1	-3%
Cc1ccc2c(CN3C(=O)NC4(CCCCC4)C3=O)cc(=O)oc2c1C	-10%
COc1ccccc1C(=O)N(Cc1nc(-c2ccc(Cl)cc2)no1)C(C)C	-6%

A few values from above.
Cc1ccc2c(c1)C(c1ccccc1)N(C(=O)C(C)C)CC(=O)N2 (stereo not drawn) in HSD17B inhib reads -4%
CCOC(=O)c1c(C)oc(/N=C/c2ccccc2O)c1C#N in HSD17B inhib reads -1%

Carrying on.
SMILES	HSD17B inhib
Cc1noc(C)c1-c1ccc2ncnc(NC3CC3)c2c1	-8%
CC(OC(=O)c1cc[n+]([O-])cc1)C(=O)Nc1ccc(Cl)cn1 (stereo not drawn)	-3%
O=c1c(Cl)c(NCCO)ncn1-c1ccccc1	-14%
CN(C)Cc1ccccc1-c1nc(NCc2cccs2)c2ccccc2n1	4%
CCC(C)NS(=O)(=O)c1ccc(NC(=O)c2c(-c3ccccc3)noc2C)cc1 (stereo not drawn)	3%
Cc1cc(C)nc(NS(=O)(=O)c2ccccc2)n1	7%
CCOC(=O)c1cccc(NC(=O)CSc2nnc(C)n2Cc2ccccc2)c1	-7%
Cc1ccc(Nc2nc3nonc3[nH]c2=O)cc1C	-27%
CCOc1ccc(-c2nnn(CC(=O)c3cc(OC)ccc3OC)n2)cc1	6.3µM*
CCc1nc(C)c(C#N)c2cc(OC)c(OC)cc12	16%
COc1cc(-c2cc3nc(C)c(C)c(=O)n3[nH]2)cc(OC)c1OC	32µM*
Cc1cc(C(F)F)n2nc(C(=O)Nc3ccccc3F)nc2n1	-2%
Cc1ccc2[nH]cc(C(=O)CN3CCC4(CC3)OCCO4)c2c1	5%
CN(C)c1nc(N)nc(/C(C#N)=C/C2CC3C=CC2C3)n1 (stereo not drawn)	-4%
Cc1cc(NC(=O)c2cccc(N3C(=O)CCC3=O)c2)no1	1%
CCOC(=O)N1CCN(c2cc(C)nc3nc(C)nn23)CC1	4%
COc1ccc(C(=O)c2ccc(OC)c(N)c2)cc1N	5%
Cn1c(N)c(C(=O)COC(=O)c2cc(C(F)(F)F)nc3ccccc23)c(=O)n(Cc2ccccc2)c1=O	-23%
O=C(CN1CCOCC1)Nc1ccc(Oc2ccccc2)cc1	8%
COC(=O)c1ccc(CN2CCN(Cc3ccc(C(=O)OC)o3)CC2)o1	5%
Cc1ccc(NC2=CC(=O)CC(c3ccco3)C2)c(N)c1 (stereo not drawn)	-8%
N#CCCNC(=O)CCN1CCOCC1	?
CCc1nnc(NC(=O)CCC(=O)N2CCN(CCc3ccccc3)CC2)s1	7%
COCc1[nH]nc2c1C(c1ccc(F)cc1F)C(C#N)=C(N)O2 (stereo not drawn)	-5%
COC(=O)c1ccc(CSc2nnc(N)s2)cc1	12%
CCOC(=O)C(NC(=O)CC)(Nc1ccccc1OC)C(F)(F)F (stereo not drawn)	4%
CCN(C1CCCCC1)S(=O)(=O)c1ccc(C(=O)O)cc1	8%
CCOC(=O)CSc1nnc(-c2cccc(Cl)c2)n1CC	12%
Cc1ccc(-n2nc3c(c2NC(=O)c2ccc(S(=O)(=O)N4CCOCC4)cc2)CSC3)c(C)c1	-12%
Nc1nc(SCC(=O)N2CCCC2)[nH]c(=O)c1-c1ccccc1	2%
N#Cc1c(-c2ccccc2)cc(C2CC2)nc1N	32µM*
NC(=O)c1ccc(Br)c(S(=O)(=O)N2CCCCC2)c1	-4%
CCOC(=O)N1CCN(c2c(N3CCc4ccccc4C3)c(=O)c2=O)CC1	-1%
CC(NC(=O)CN1C(=O)COc2ccccc21)c1ccccc1 (stereo not drawn)	22%
Nc1ccc2oc(-c3cccs3)nc2c1	?
COc1cccc(-n2nnc3c(=O)n(Cc4ccc(Cl)cc4)cnc32)c1	?
COc1cccc(C(=O)CSc2nnc(COc3cccc4cccnc34)o2)c1	0%
CC1(C)CC(CCNC(=O)c2ccco2)CC(C)(C)N1	8%
CC1CCC2C(=O)OC(CO)CN2C1c1ccc(Br)cc1 (stereo not drawn)	3%[11.4 µM]
CCCOc1ccc(C(C)(O)CN2CCOCC2)cc1 (stereo not drawn)	5%
COc1c(C)cc(Br)cc1C(=O)O	-2%
O=C(O)c1ccc2c3c(cccc13)C(=O)N(c1ccccc1O)C2=O	-26%
CCOC(=O)Cn1cnc2c(C#N)c3n(c2c1=O)CCCCC3	7%
CCOC(=O)C1CCN(C(=O)CN(Cc2ccccc2)S(C)(=O)=O)CC1	4%
CN1CCC(CNC(=O)c2ccc(Cc3nc4ccccc4[nH]3)cc2)CC1	4%
CCOC(=O)C1CCN(S(=O)(=O)C(F)(F)c2nc3ccccc3s2)CC1	-7%
c1ccc(Cn2c(SCc3cn4cccnc4n3)nnc2-c2ccco2)cc1	?
COc1ccc2c3c1OC1CC(O)C=C[C@@]31CCN(C)C2 (stereo partly drawn)	15%
COc1ccc(COC(=O)N/N=C2/C[C@@H](O)[C@@H](O)[C@@H]3[C@@H]4C(=O)N([C@@H](C)c5ccccc5)C(=O)[C@H]4CC[C@H]23)cc1	1%[11.4 µM]
COc1ccc2c(c1)N(CC[C@H]1CCCCN1C)c1ccccc1S2	4%[11.4 µM]
CN(Cc1ccccc1)C1CC(=O)N(c2ccc(C(=O)O)cc2)C1=O (stereo not drawn)	0%
O=C(CN(C(=O)CCC(=O)Nc1nccs1)c1cccc(F)c1)NCC1CCCO1 (stereo not drawn)	11%
Cc1cc(NC(=O)CN2CCCCCCC2)no1	8%
CCCn1c(SCC(=O)Nc2nccs2)nnc1-c1cccnc1	3%
Cn1ccnc1SCC(=O)Nc1sccc1C#N	?
O=C(NC1CCS(=O)(=O)C1)c1ccc(-c2ccc(Br)cc2)o1 (stereo not drawn)	32µM*
CN(C)CCCSc1nc2ccccc2[nH]1	4%[11.4 µM]
O=C(O)C1C2C=CC(C2)C1C(=O)NCc1ccc2c(c1)OCO2 (stereo not drawn)	-4%
NC1=NC(=Nc2ccccc2)c2ccccc21	9%
O=C(CCCOc1ccc(Cl)cc1)N1CCCCCC1	-8%

Seven entries drawn at random from the list so far:
SMILES	HSD17B inhib
Cn1ccnc1SCC(=O)Nc1sccc1C#N	?
Cc1cc(NC(=O)CN2CCCCCCC2)no1	8%
CN(Cc1ccccc1)C1CC(=O)N(c2ccc(C(=O)O)cc2)C1=O (stereo not drawn)	0%
O=C(O)C1C2C=CC(C2)C1C(=O)NCc1ccc2c(c1)OCO2 (stereo not drawn)	-4%
O=C(CN(C(=O)CCC(=O)Nc1nccs1)c1cccc(F)c1)NCC1CCCO1 (stereo not drawn)	11%
CN(C)CCCSc1nc2ccccc2[nH]1	4%[11.4 µM]
NC1=NC(=Nc2ccccc2)c2ccccc21	9%

More structures.
SMILES	HSD17B inhib
COc1nc(NCCC2=CCCCC2)nc(OC)n1	4%
Fc1ccc(Cn2nnnc2C(c2cccs2)N2CCCCCC2)cc1 (stereo not drawn)	-17%
COc1ccc(N2CCN(C(=O)CCCOc3cc(=O)n(C)c4ccccc34)CC2)cc1	13%
O=C(c1csnn1)N1CCC[C@@]2(CCN(c3cccc(-c4ccccc4)c3)C2)C1	?
CC(=O)Oc1ccc(N(C(C)=O)S(=O)(=O)c2cccs2)cc1	-4%
CCCn1c(=O)c(C(=O)Nc2ccncc2)c(O)c2ccccc21	7%
CCOC(=O)C1=C[C@@]2(CC)CCCN3CCc4c(n1c1ccccc41)[C@H]32	?
Cc1cccc(CNc2nc(-c3ccoc3)nc3ccccc23)c1	-8%
Clc1ccc2nc(CN3CCCCC3)cn2c1	14%
CN(Cc1nc(-c2cccnc2)no1)S(=O)(=O)c1ccc(Br)cc1	7%
CCOc1ccc2cc(S(=O)(=O)N3CCN(C)CC3)ccc2c1	-28%
COc1ccc(CNC(=O)c2c(O)c3ccccc3n(C)c2=O)cc1OC	11%

4 structures already listed, ordered by number of heavy atoms, ascending:
SMILES	HSD17B inhib
CC(=O)Oc1ccc(N(C(C)=O)S(=O)(=O)c2cccs2)cc1	-4%
CCCn1c(=O)c(C(=O)Nc2ccncc2)c(O)c2ccccc21	7%
Fc1ccc(Cn2nnnc2C(c2cccs2)N2CCCCCC2)cc1 (stereo not drawn)	-17%
COc1ccc(CNC(=O)c2c(O)c3ccccc3n(C)c2=O)cc1OC	11%

(further entries)
SMILES	HSD17B inhib
O=C(CN1C(=O)C2CCc3[nH]c4ccccc4c3C2C1=O)N1CCCC1 (stereo not drawn)	13%
CCC1CCCCN1S(=O)(=O)c1ccc(S(=O)(=O)N(Cc2cccs2)C2CC2)cc1 (stereo not drawn)	7%
COc1ccccc1OCCNC(=O)c1ccc(S(=O)(=O)N(C)C)cc1	2%
COc1ccccc1CC(=O)NCc1ccc2c(c1)OCO2	10%
COC(C)(C)c1cc(C(C)(C)C)nc(N)n1	-1%
CCN(CC)CCCNC(=O)C1c2ccccc2Oc2ccccc21	9%
Cc1oc(-c2cccc(Cl)c2)nc1CN1CCC(C(=O)N2CCN(c3ccccc3F)CC2)CC1	-1%
CN1/C(=C\C(=O)c2ccco2)c2ccccc2CC1(C)C	0%
COC(=O)c1ccccc1NC(=O)c1cc2sccc2n1C	25µM*

From PubChem BioAssay

A portion of the library; the hit share may differ from the screen's.
